Screening data from PubChem BioAssay.
NPYLR7 ag – activates Aedes aegypti NPYLR7 receptor. HEK293T NPYLR7/Galpha15, GCaMP6s calcium fluorescence. activation, % at 10 µM. actives 0.15% (n = 270,000); in the data active means activation above about 40%;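 further: 0% = vehicle and 100% = reference agonist at the receptor; some compounds past the cut are filed as inactive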
NPYLR7 ag max-min – second read-out of NPYLR7 ag, no call of its own (marks repeat the call); activation, %; measured here: Max-Min RFU normalised activation; some inactives read as strong as hits;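 span of the calcium signal over five minutes; 0% = vehicle and 100% = native peptide agonist; compound fluorescence can raise it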
Starred values were filed as active, the others as inactive. Some of the compounds tested. The share of hits here may be higher or lower than overall.

Results follow in this order: NPYLR7 ag	NPYLR7 ag max-min
CCOc1cccc2cc(C(=O)NC(C)=O)c(=Nc3ccccc3)oc12
  4	-4
COc1ccc(-n2c(-c3ccccc3)csc2=Nc2ccc(F)cc2)cc1OC
  -2	-3
COCCCN(CC(=O)N(Cc1cccn1Cc1ccc(Br)cc1)C1CCCCC1)C(=O)/C=C/c1ccccc1
  13	20
Cc1cccc(C)c1NS(=O)(=O)c1ccc(F)cc1[N+](=O)[O-]
  2	4
O=S(=O)(O)c1cc(O)ccc1O
  9	-4
NC(=O)Cn1nccc1-c1ccc(F)c(Cl)c1
  8	5
CN(C)CC1(O)CCN(C(=O)C2(c3ccc(Cl)cc3)CCC2)C1 (stereo not drawn)
  19	18
COc1ccc(N(C)S(=O)(=O)c2ccc(OC)c(N3CCN(S(=O)(=O)c4ccc(F)cc4F)CC3)c2)cc1
  22	16
Cc1cc2cc(CNC(=O)c3ccccc3)ccc2n1C
  5	2
COC(=O)c1ccc(Cn2c(C)c(C(=O)NCc3cccc4ccccc34)sc2=O)o1
  14	7
COCCN(Cc1nccn1Cc1ccccc1)C(=O)c1ccccc1F
  13	17
C=CCn1c(=O)c2c(nc3n(Cc4ccco4)c(C)c(C)n23)n(C)c1=O
  17	16
COc1ccc(CC(=O)NC(N=C(NC#N)Nc2cccc3ncccc23)C(C)(C)C)cc1OC (stereo not drawn)
  1	-6
Cc1nn(C(C)(C)C)c2nc(C3CC3)cc(C(=O)NC(C)C)c12
  -4	-5
CCC(C)c1ccc(S(=O)(=O)N(C)c2ccccn2)cc1 (stereo not drawn)
  0	-2

(next part)
Results follow in this order: NPYLR7 ag	NPYLR7 ag max-min
COC(=O)c1cnc(NC(=O)COc2cccc(C(C)(C)C)c2)s1
  0	-1
Cc1cc(C)cc(N=C2NC(=O)/C(=C/c3ccc(-c4ccc(C(=O)O)cc4)o3)S2)c1
  -5	-6
Cc1nn2c(C(F)(F)F)cc(-c3ccc(Cl)cc3)nc2c1C(=O)N1CCN(C(c2ccccc2)c2ccccc2)CC1
  -6	-2
COC(=O)c1ccc(CN2CCC3(CC2)C(=O)N(CCCc2ccncc2)C(=O)N3C)cc1
  19	15
NC(=O)CCN1CCN(S(=O)(=O)c2cccs2)CC1
  17	12
O=C(Nc1ccc2c(c1)OCO2)N1CCN(c2cc(-n3ccnc3)ncn2)CC1
  -3	-3
Cc1c(C(=O)NCc2ccc3c(c2)OCO3)cc(-c2ccc(Cl)cc2)n1-c1ccccc1
  0	8
CC(C)N1CCN(C(=O)C2CCCN(Cc3ccco3)C2)CC1 (stereo not drawn)
  16	7
O=C(NCCN1CCOCC1)c1ccc(N2CCC(N3CCCC(c4ccccc4)CC3)CC2)cc1 (stereo not drawn)
  3	-2
CCN(CC)S(=O)(=O)c1cc(N=Cc2sccc2C)ccc1C
  2	1
CN1N=C(C(=O)Nc2ccc3nc(Cc4ccccc4F)[nH]c3c2)CCC1=O
  -4	6
O=S(=O)(Nc1ccc2c(c1)OCCO2)c1ccccc1Br
  3	3
CC(=O)c1c(Cl)nc2ccc([N+](=O)[O-])cc2c1-c1ccccc1
  -3	-4
Cc1ccccc1C1(C)NC(=O)N(Cc2nc(C)c(C)s2)C1=O (stereo not drawn)
  2	-1
CCN(Cc1ccc(F)cc1)C(=O)c1ccc(O)cc1
  -5	-13

Single records, from the list above.
Cc1cccc(C)c1NS(=O)(=O)c1ccc(F)cc1[N+](=O)[O-] reads NPYLR7 ag: 2; NPYLR7 ag max-min: 4
COC(=O)c1ccc(Cn2c(C)c(C(=O)NCc3cccc4ccccc34)sc2=O)o1 reads NPYLR7 ag: 14; NPYLR7 ag max-min: 7

Remaining list, next part
Results follow in this order: NPYLR7 ag	NPYLR7 ag max-min
CCOC(=NCc1ccccc1)NC(=O)c1ccc(Cl)c(Cl)c1
  -14	-7
Cc1nc(N2CCC(C(=O)N3CCCC(c4ccccc4)CC3)CC2)nc2ccccc12 (stereo not drawn)
  32	27
Cc1cc(=O)n2c(c1-c1ccccc1)SCC2C(=O)O (stereo not drawn)
  -12	-10
COC(=O)c1ccc(CN(CCN2CCOCC2)Cc2ccc(C)o2)o1
  -7	-1
Nc1ccc2c(c1)N(S(=O)(=O)c1cccs1)CCC2
  -4	-1
Nc1cc2c(cc1Sc1ccccc1)OCCO2
  6	1
CC(C)SC(NC(=O)OCc1ccccc1)C(=O)Nc1ccccc1 (stereo not drawn)
  -6	-11
Cc1ccccc1/C=C/C(=O)N(C)CC(=O)NC(C)(C)C
  0	0
Cc1cc(NCCC(=O)c2ccccc2)no1
  7	4
CCn1c(SCc2ccccc2F)nc2c([nH]c3ccccc32)c1=O
  -1	-2
COc1ccc(OCC(O)CN(Cc2ccco2)Cc2cccn2C)cc1 (stereo not drawn)
  -11	5
O=C(Nc1ccccc1Cl)c1csc2c1CCCC2
  2	-1
COc1ccc(-c2ccc(NC(=O)c3cccnc3)c(C)c2)c(OC)c1OC
  27	16
C=C(C)Cn1c(SCc2cccc(C)c2)nc2c1c(=O)[nH]c(=O)n2C
  2	1
COCCNc1oc2c(c1-c1ccc(F)cc1)c(=O)oc1ccccc12
  1	-1

New compounds follow
Results follow in this order: NPYLR7 ag	NPYLR7 ag max-min
Cn1c(=O)c2c(SCCO)nc(-c3cccc(F)c3)nc2n(C)c1=O
  -4	-3
COc1ccccc1S(=O)Cc1cnn(-c2ccccc2)c1 (stereo not drawn)
  -1	0
CCC(C)N(CC(=O)N(CCc1ccc(OC)c(OC)c1)Cc1ccco1)S(=O)(=O)c1cc(Cl)ccc1Cl (stereo not drawn)
  5	17
COc1ccc2nc(-c3ccc(NC(=O)Nc4cccs4)cc3)cn2n1
  -1	-2
COc1ccc(-c2cc(O)cc3sc(=O)oc23)cc1
  6	5
CCN=c1scc(-c2ccc(Cl)cc2)n1N=Cc1ccc2c(c1)OCO2
  -4	-5
CCOc1nc(-c2ccc(C(F)(F)F)cc2)n(-c2ccc(NC(=O)c3ccc(F)cc3)cc2)n1
  2	1
CCc1cccc2c(C(CC(=O)N3CCN(c4cccc(C(F)(F)F)c4)CC3)c3ccccc3Cl)c[nH]c12 (stereo not drawn)
  2	14
O=C(Nc1cccc(F)c1)c1cccc(S(=O)(=O)N2CCCCC2)c1
  1	-4
COCCCN1C(=O)CC(CC(=O)N2CCC(c3ccccc3Cl)C2)(c2ccccc2OC)C1=O (stereo not drawn)
  23	9
COCC(=O)Nn1ccc2c(cnc3c(-c4ccc(F)cc4)c(COC)nn32)c1=O
  5	6
CC(NC(=O)c1ccco1)c1nc2ccccc2n1CC=Cc1ccccc1 (stereo not drawn)
  -7	-8
CCOc1ccc(CN2CCN(c3cc(C)nc4c5c(C)cc(C)nc5nn34)CC2)cc1
  -2	8
N#Cc1c(NC(=O)CN2CCc3cncnc3C2)sc2c1CCC2
  10	7
O=C(NC1CC2CCC(C1)N2Cc1ccc2c(c1)OCO2)c1c(Cl)cc(Cl)cc1Cl (stereo not drawn)
  0	2

Next part:
| Molecule | NPYLR7 ag | NPYLR7 ag max-min |
| --- | --- | --- |
| c1cc(CN2CCOCC2)cc(CN2C[C@@H]3C4CCC(CC4)[C@@H]3C2)c1 | -1 | 16 |
| Cc1ncc(C(=O)NCc2cccc(N(C)C)c2)[nH]1 | -4 | -5 |
| CCC(C)NC(=O)C1CCN(S(=O)(=O)c2ccc3c(c2)CCCC3)CC1 (stereo not drawn) | 6 | 1 |
| Cc1nc(CC(=O)N2CCOC(COc3ccc4c(c3)CCCC4)C2)c(C)s1 (stereo not drawn) | 24 | 22 |
| NC(=O)c1cc2cc([N+](=O)[O-])ccc2oc1=O | 14 | 1 |
| CCOC(=O)CNC(=O)CSC1=NS(=O)(=O)c2cc(Cl)ccc2N1 | 10 | 5 |
| Cc1ccc(NC2=NS(=O)(=O)c3ccccc32)c([N+](=O)[O-])c1 | -13 | -21 |
| C=CCSc1nnc(NC(=O)c2cc(Br)ccc2Cl)s1 | -6 | -10 |
| O=C(NCCO)C(=O)NCC1OCCCN1S(=O)(=O)c1cccs1 (stereo not drawn) | -4 | 3 |
| CCc1c(C(=O)Cn2cnc3cc(F)c(F)cc32)[nH]c(C)c1C(C)=O | 2 | -1 |
| Cc1ccc(CC2(C)C(=O)Nc3ccc(-c4cccnc4)cc32)cc1 (stereo not drawn) | 1 | 0 |
| O=C1Nc2ccccc2/C1=c1/sc2n(c1=O)CCN=2 | 1 | -8 |
| COc1cc2c(cc1OC)Cc1cc(OC)c(OC)cc1Cc1cc(OC)c(OC)cc1C2 | -1 | -6 |
| O=C1CCCC(=O)C1C1(O)C(=O)c2ccccc2C1=O | 14 | 15 |
| N#CCOC(=O)c1ccc(Br)o1 | 15 | 9 |
| C1CCN(c2nonc2-[n+]2nc3nonc3[nH]2)CC1 | -7 | -7 |
| N#Cc1ccc(CON=Cc2ccccc2OC(F)F)cc1 | 0 | -2 |
| O=C(NCCc1ccc(Cl)cc1Cl)c1cn[nH]c1 | -3 | -4 |
| O=C1C(=Cc2cccnc2)SC(=S)N1c1cccc(C(F)(F)F)c1 | 27 | 12 |
| O=C(Cn1ccc(C(F)(F)F)n1)NN=Cc1ccc(N2CCOCC2)s1 | 5 | 7 |
| CCc1nnc(NC2CCN(Cc3ccccc3)CC2)c(C#N)c1CC | 1 | -3 |
| NC(=O)c1cccc(Cn2nnc3c(cnn3-c3ccccc3)c2=O)c1 | 9 | -1 |
| Cc1ccc(Sc2ccc(S(N)(=O)=O)cc2)cc1C | 4 | 8 |
| Oc1cccc(C=Nc2c(-c3ccco3)nc3ccccn23)c1 | -9 | -19 |
| COCCN(CC(=O)N(Cc1ccco1)Cc1cccn1C)C(=O)c1ccc(C(F)(F)F)cc1 | -8 | -6 |
| C=CCN(Cc1ccccc1)C(=O)C1(C(N)=O)CC1 | -5 | -7 |
| COCCN(Cc1cccn1Cc1ccccc1)C(=O)CN(CC(C)C)C(=O)c1ccc(-c2ccccc2)cc1 | -1 | -5 |
| Cc1onc(-c2ccccc2Cl)c1C(=O)N1CCC(C)CC1 | 5 | 5 |
| CNC(=O)[C@@H]1CN2CCN(C(=O)c3cc4ccccc4o3)C[C@@H]2[C@H]1c1ccccc1 | 2 | 3 |
| COc1ccc(-c2cc(C(=O)N3CCN(c4cccc(Cl)c4)CC3)c(C)n2-c2ccc(C)cc2)cc1 | -5 | 2 |

The list goes on; the last 3 above are carried over.
| Molecule | NPYLR7 ag | NPYLR7 ag max-min |
| --- | --- | --- |
| Cc1onc(-c2ccccc2Cl)c1C(=O)N1CCC(C)CC1 | 5 | 5 |
| CNC(=O)[C@@H]1CN2CCN(C(=O)c3cc4ccccc4o3)C[C@@H]2[C@H]1c1ccccc1 | 2 | 3 |
| COc1ccc(-c2cc(C(=O)N3CCN(c4cccc(Cl)c4)CC3)c(C)n2-c2ccc(C)cc2)cc1 | -5 | 2 |
| COc1ccc2nc(SCc3csc(Cc4ccc(F)cc4Cl)n3)[nH]c2c1 | 5 | 7 |
| Cc1sc2ncn(CC(=O)c3cc(C)n(CC4CCCO4)c3C)c(=O)c2c1C (stereo not drawn) | 3 | 4 |
| Cc1c(C)n2c3c(=O)[nH]c(=O)n(C)c3nc2n1-c1cccc(O)c1 | -17 | -18 |
| COCCCN(Cc1ccc(C(O)(c2ccc(F)cc2)c2ccc(F)cc2)o1)Cc1ccc(C)s1 | 18 | 21 |
| Cc1cccc(C2c3cccn3CCN2C(=O)CCC(=O)N2CC3(C)CC2CC(C)(C)C3)c1 (stereo not drawn) | 26 | 17 |
| O=C(O)CS(=O)(=O)c1nc2ccccc2s1 | 7 | 10 |
| COc1cc(C(=O)NC(C)CN2CCCC2=O)ccc1OCc1c(C)noc1C (stereo not drawn) | -2 | -1 |
| CC1Cc2c(NC(=O)COc3ccc(Cl)cc3)nn(C)c2NC1=O (stereo not drawn) | 1 | -6 |
| CCc1ccc2nc(NCCNC(C)=O)cc(C)c2c1 | 18 | 7 |
| CC1(C(=O)NS(=O)(=O)c2ccc(Cl)s2)CCN1C(=O)CCc1ccccc1 (stereo not drawn) | 0 | -1 |
| O=C(Nc1ccnn1C1CCN(Cc2ccc3nsnc3c2)CC1)C1CCCC1 | 4 | 1 |
| c1ccc(CNc2cc(-c3cccc(-n4cnnc4)c3)c3cc[nH]c3n2)nc1 | -5 | -8 |
| COc1cn(CC(=O)Nc2ccc(Br)cc2)c(CSc2nccn2C)cc1=O | 1 | -4 |
| C=C(C)Cn1ccc(-c2cccc(-c3ccc(S(C)(=O)=O)cc3)c2)n1 | 4 | 0 |
| OC(COc1c(F)cc(Br)cc1F)CN1CCN(c2ccc(F)cc2)CC1 (stereo not drawn) | 0 | -3 |
| O=S(=O)(c1ccc(Cl)cc1)N1CCC(CCc2ccc3c(c2)OCO3)CC1 | 2 | -1 |
| N#Cc1ccc(Oc2ccccc2F)c(F)c1 | -4 | -9 |
| CCN=c1scc(-c2cc(OC)ccc2OC)n1N=C1CCC(C(C)(C)C)CC1 (stereo not drawn) | -8 | -18 |
| COc1cccc(C(=O)NNc2nc(-c3ccccc3)c3cc(Br)ccc3n2)c1 | -4 | -14 |
| O=S1(=O)CCC(Cc2nc(CCc3ccccc3)nn2-c2ccccn2)C1 (stereo not drawn) | 2 | -1 |
| COc1cc(C=C2N=C(c3cccc(OC(F)F)c3)OC2=O)cc(OC)c1OC(F)F | 11 | 14 |
| CC(C)CN1CCC(CN(C)C(=O)c2cc(COc3ccc4ncccc4c3)on2)C1 (stereo not drawn) | 7 | 5 |
| COc1ccccc1OCc1cc(C(=O)N2CCC(NC(C)=O)C2)n[nH]1 (stereo not drawn) | 7 | 6 |
| O=C(Nc1ccc(F)c(NC(=O)C2CCCCC2)c1)c1ccco1 | 1 | 1 |
| O=C1NC(=Nc2ccccn2)SC1Cc1ccc(Cl)cc1 (stereo not drawn) | 13 | 11 |
| COCCN(Cc1ccc(OCc2nc(CO)cs2)cc1)C(=O)C1CC1 | 26 | 35 |
| c1csc(-c2cnc3ccccc3n2)c1 | 11 | 12 |
| COc1ccc2c(c1)CCCN2S(=O)(=O)c1ccc2c(c1)CC(=O)N2 | -2 | -1 |
| Cc1cccc(OC2CCN(C(=O)CCNS(C)(=O)=O)CC2)c1 | 12 | 10 |
| Cc1cccc(C)c1OCCCNC(=O)N1CCCSCC1 | 3 | 3 |
| Cc1ccc(NC(=O)N(CC(=O)N(Cc2ccc3c(c2)OCO3)Cc2sccc2C)C2CCCCC2)cc1 | 7 | 8 |
